Marburg entry inh = blocks Marburg virus binding to or entry into cells; Marburg virus pseudotyped entry inhibition, cell reporter; control for the full effect not named in the record; about a third of the inactives were read at about 46 µM; Potency, µM (top dose mostly 37.8 µM), for the others: top-dose activity change, negative = inhibition, most hits filed as inhibitors; 300,000 compounds, 1.8% hits; active = well fitted inhibition curve with a large enough effect; inconclusive = small, poorly fitted or top-dose-only effect, or effect the other way; inactive = flat fitted curve, though single readings scatter; tested in HEK293 cells; about a fifth of its hits are not listed in these tables; note: % is set by controls: 0 for no effect and ±100 for the full control effect; luciferase read-out
SARS PLpro yeast = blocks SARS-CoV papain-like protease in a yeast assay | S. cerevisiae expressing SARS-CoV PLpro, growth rescue; control for the full effect not named in the record | Potency, µM (doses to about 32.9 µM), for inactives: at the top dose activity, positive = growth rescue | 330,000 compounds, 0.19% hits | AID 485353; active means well fitted rising curve with a large enough effect; inconclusive means small, poorly fitted or top-dose-only effect; inactive means no such curve, though single readings can be large or run the other way; note: 0% is about no effect; nearly all actives have a fitted effect of over 55% in size; growth read by luminescence after 48 h
RE007 growth inh = less growth of the S. pombe RE007 Vpr strain; S. pombe RE007 Vpr strain, BacTiter-Glo ATP luminescence, 24 h; control for the full effect not named in the record; Potency, µM (series often up to 92.2 µM), inactives show at the highest dose activity change, negative = less growth; 360,000 compounds, 0.21% hits; AID 651644; active = well fitted falling curve with a large enough effect; inconclusive = small, poorly fitted or top-dose-only effect; inactive = no such curve, though single readings can be large or run the other way;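 note: % is set by controls: 0 for no effect and ±100 for the full control effect; nearly all actives have a fitted effect of over 50% in size; the assay follows cell death caused by Vpr and the record does not say whether a fall means rescue or toxicity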
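Fission yeast RE007 carrying one integrated HIV-1 vpr copy, seeded at OD 0.01 in PMG+AL medium with 23 nL pinned compound. Grown 24 h at 30 degrees; viability read by BacTiter-Glo luminescence after 5 min.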
Cruzain noTriton = cruzain (T. cruzi) inhibition without detergent | P25779 | purified cruzain, Z-FR-AMC fluorescence, no detergent | Potency, µM, inactives show max response, negative = inhibition, actives largely listed as inhibitors | 200,000 compounds, 2.3% hits | AID 1476;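 note: plate controls were enzyme without inhibitor for no effect and buffer without enzyme for full effect; nearly all actives have a fitted effect of over 40% in size; top concentration of the series not given in the record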
Target sequence (P25779 123-467 limits assumed): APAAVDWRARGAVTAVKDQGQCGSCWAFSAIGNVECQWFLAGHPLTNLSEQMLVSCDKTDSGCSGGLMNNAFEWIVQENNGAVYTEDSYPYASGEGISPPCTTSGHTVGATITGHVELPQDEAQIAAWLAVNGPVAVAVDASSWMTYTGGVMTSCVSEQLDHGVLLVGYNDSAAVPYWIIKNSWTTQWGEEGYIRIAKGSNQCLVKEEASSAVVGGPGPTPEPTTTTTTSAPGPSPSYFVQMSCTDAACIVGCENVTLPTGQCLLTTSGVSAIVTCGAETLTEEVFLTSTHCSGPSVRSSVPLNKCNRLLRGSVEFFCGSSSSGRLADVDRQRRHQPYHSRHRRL
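Purified cruzain at 1.5 nM, pre-incubated 15 min with compound at room temperature in 100 mM sodium acetate pH 5.5, 5 mM DTT, 0.00005% Triton X-100. Reaction started with 2 uM Z-FR-AMC; AMC fluorescence increase over 60 s gives rate.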
StopGo reporter = lowers the luciferase signal of an FMDV 2A StopGo reporter. AID 1159524. Potency, µM (top dose mostly 57.9 µM), for inactives: top-dose signal change, negative = less light. 410,000 compounds, 1.2% hits. human cells with a luciferase reporter of 2A StopGo recoding; control for the full effect not named in the record; active = well fitted falling curve with a large enough effect; inconclusive = small, poorly fitted or top-dose-only effect; inactive = no such curve, though single readings can be large or run the other way; tested in HEK293T cells; note: % is set by controls: 0 for no effect and ±100 for the full control effect; nearly all actives have a fitted effect of over 45% in size; luciferase light after 4 h
NS1 function inh = influenza NS1 inhibition; S. cerevisiae slowed by influenza A NS1, growth recovery by OD600; Potency, µM (titrated, usually from 46.1 µM), without a hit: at the highest dose activity, positive = more growth; 270,000 compounds, 0.4% hits; AID 2326; active means well fitted rising curve with a large enough effect; inconclusive means small, poorly fitted or top-dose-only effect; inactive means no such curve, though single readings can be large or run the other way; note: nearly all actives have a fitted effect of over 50% in size
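OD600 was taken as the measure of yeast growth restored by compound in an NS1-expressing S. cerevisiae strain. Cells had been washed out of glucose medium and diluted 1:100 into galactose -URA medium, pH 6.0.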
Lassa entry inh = blocks Lassa virus binding to or entry into cells. Potency, µM (highest dose often 37.9 µM), inactives show at the highest dose activity change, negative = inhibition, actives largely listed as inhibitors. 300,000 compounds, 1.2% hits. Lassa virus pseudotype entry inhibition, cell reporter; control for the full effect not named in the record; active means well fitted inhibition curve with a large enough effect; inconclusive means small, poorly fitted or top-dose-only effect, or effect the other way; inactive means flat fitted curve, though single readings scatter; tested in HEK293 cells; note: % is set by controls: 0 for no effect and ±100 for the full control effect; nearly all actives have a fitted effect of over 50% in size; luciferase read-out
Cruzain inh Det = inhibitors of Trypanosoma cruzi cruzain with detergent. P25779. purified cruzain, Z-FR-AMC fluorescence, 0.01% Triton. AID 1478. Potency, µM, inactives show max response, negative = inhibition, usual class: inhibitors. 200,000 compounds, 0.43% hits;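 note: plate controls were neutral wells for no effect and buffer without enzyme for full effect; nearly all actives have a fitted effect of over 40% in size; top concentration of the series not given in the record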
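Cruzain (1.5 nM) preincubated 15 min at RT with compound in 100 mM sodium acetate pH 5.5, 5 mM DTT, 0.01% Triton X-100. Reaction started with 2 uM Z-FR-AMC; AMC fluorescence (ex 360/em 450 nm) change over 60 s gave rate.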
* marks the source's active call; other numbers are inactive results; u = inconclusive; x = no result given; & = joins results of further samples; [ ] = another dose, or the depositor's remark. Unless noted, calls come from the whole dose curve; as a rule, active = well fitted curve in the direction sought with a large enough effect; inconclusive = small, poorly fitted or top-dose-only effect, or another doubt; inactive = no such curve, though single readings can be large; an effect the other way counts as inactive or inconclusive. Potency is the fitted concentration of half-maximal effect.

SMILES	Marburg entry inh	SARS PLpro yeast	RE007 growth inh	Cruzain noTriton	StopGo reporter	NS1 function inh	Lassa entry inh	Cruzain inh Det
CCOC(=O)Cc1c(Sc2ccccc2)c2ccccc2n1C	-9%	-99%	8%	27%	-20%	-67%	-30%	5.5%
COC(=O)c1ccc(/C=C/c2ccc3cccc(OC(C)=O)c3n2)cc1	u	28%	u	7%	-23%	-32%	u	-6.6%
Cn1c(CBr)c(C(=O)c2ccc([N+](=O)[O-])cc2)c(=O)n(C)c1=O	9%	0%	6%	x	-16%	12%	-4%	x
NS(=O)(=O)c1cc(C(=O)OC2CCOC2=O)ccc1Cl (stereo unspecified)	x	-2%	10%	x	0%	15%	x	x
COc1ccc(NC(=O)CCS(=O)(=O)c2nc(-c3cccs3)cc(C(F)(F)F)n2)cc1OC	u	x	x	16%	22µM*	x	u	-11%
CN(CC1COc2ccccc2O1)C(=S)Nc1ccccc1 (stereo unspecified)	-4%	x	1%	x	30%[activator]	x	-10%	x
Cc1ccc(NC(=O)COn2nnc3ccc(S(=O)(=O)N(C)C)cc32)cc1F	-9%	-21%	-7%	-5%	0%	8%	-7%	0.8%
O=C(Cn1nnc(-c2ccccc2)n1)OCc1csc(-c2ccccc2)n1	11%[46.1 µM]	2%	-1%	11%	75%[activator]	3%	10%	-4.5%
CCOC(=O)c1c(C)nc2c(c1C)c(=O)oc1ccccc12	1%[46.1 µM]	-40%	u	5%	20%	-1%	0%	-7.7%
CC(=O)c1ccc(NC(=O)C2CCN(S(=O)(=O)c3cccs3)CC2)cc1	x	1%	12%	x	35%[activator]	-2%	x	x
CC(Sc1ncnc2sc(-c3ccccc3)cc12)C(N)=O (stereo unspecified)	x	-2%	-5%	x	15%	-7%	x	x
CCN(CC(=O)Nc1cc(Cl)cc(Cl)c1)CC(=O)NC1CCS(=O)(=O)C1 (stereo unspecified)	6%[46.1 µM]	0%	-8%	x	-8%	x	1%[46.1 µM]	x
CN(C(=O)CN1C(=O)C2C3CC(C(Br)C3Br)C2C1=O)C1CCCCC1 (stereo unspecified)	u	-3%	-1%	x	15%	-8%	-9%[46.1 µM]	x
Cc1cc(C)c(NC(=O)CSc2nnc(CNC(=O)c3c(F)cccc3Cl)o2)c(C)c1	18%[46.1 µM]	1%	-2%	x	-8%	15%	u	x
COc1cccc(NC(=O)CCc2nnc3ccc(N4CCN(c5cccc(OC)c5)CC4)nn23)c1	x	0%	4%	x	-2%	8%	x	x
O=C1C2CCCCN2C(=O)N1CCCCN1CCN(c2cccc(Cl)c2)CC1 (stereo unspecified)	4%	0%	-23%	x	-22%	-7%	13%	x
N=C(N)c1ccc(Cl)cc1	-20%[46.1 µM]	0%	2%	x	-10%	x	0%[46.1 µM]	x
COc1ccc(NC(=O)C2CCCC2)cc1S(=O)(=O)N1CCOCC1	u	-1%	19%	x	-6%	x	-21%	x
CC1CCCC(C)N1CC(O)COCc1ccccc1F (stereo unspecified)	x	0%	28%	x	-11%	0%	x	x
Cc1nn2c3c(cnc2c1-c1ccccc1)C(=O)CCC3	-1%	9%	-2%	2%	12%	-4%	1%	-0.2%

Quoted at random: three records from the list.
SMILES	Marburg entry inh	SARS PLpro yeast	RE007 growth inh	Cruzain noTriton	StopGo reporter	NS1 function inh	Lassa entry inh	Cruzain inh Det
CC(=O)c1ccc(NC(=O)C2CCN(S(=O)(=O)c3cccs3)CC2)cc1	x	1%	12%	x	35%[activator]	-2%	x	x
Cn1c(CBr)c(C(=O)c2ccc([N+](=O)[O-])cc2)c(=O)n(C)c1=O	9%	0%	6%	x	-16%	12%	-4%	x
O=C(Cn1nnc(-c2ccccc2)n1)OCc1csc(-c2ccccc2)n1	11%[46.1 µM]	2%	-1%	11%	75%[activator]	3%	10%	-4.5%

The list continues:
SMILES	Marburg entry inh	SARS PLpro yeast	RE007 growth inh	Cruzain noTriton	StopGo reporter	NS1 function inh	Lassa entry inh	Cruzain inh Det
O=S(=O)(c1ccc2ccccc2c1)N1CCN(Cc2ccccn2)CC1	u	0%	4%	x	-30%	11%	-21%	x
COc1ccc(/C=C(\NC(=O)c2cccs2)C(=O)N2CCOCC2)cc1OC	x	23%	3%	0%	x	2%	x	-6.5%
CCN(C1CCS(=O)(=O)C1)S(=O)(=O)c1cc(C)ccc1C (stereo unspecified)	-26%[46.1 µM]	-4%	-28%	x	-4%	x	12%	x
CCCNC(=S)N1CCC(c2nc3cc(C)c(C)cc3[nH]2)CC1	3%	-4%	-15%	5%	x	-6%	-2%	2.8%
O=C(NCc1cccnc1)Nc1cccc(C(F)(F)F)c1	-3%[46.1 µM]	9%	9%	x	6%	7%	20%[46.1 µM]	x
COc1cc(C2C(S(=O)(=O)c3ccccc3)CON2C)ccc1OCc1ccc(F)cc1 (stereo unspecified)	u	0%	51%	x	-7%	-6%	9%	x
CCCc1cc(CN(C)C(=O)CC2C(=O)NCCN2Cc2ccccc2C)[nH]n1 (stereo unspecified)	u	8%	2%	x	-13%	9%	5%	x
CC(=O)NC(NC(=S)Nc1c(C)n(C)n(-c2ccccc2)c1=O)C(Cl)(Cl)Cl (stereo unspecified)	20%	0%	0%	x	-13%	x	2%	x
Cc1ccccc1-c1noc(-c2cccs2)n1	u	7%	-21%	0%	33%[activator]	0%	8%	-1.2%
CCOC(=O)c1ccc(Nc2nc(N3CCOCC3)nc(N3CCOCC3)n2)cc1	u	2%	0%	x	-11%	4%	u	x
COc1cccc(/C=N/n2cnc3c(cnn3-c3ccccc3)c2=O)c1	0%	-2%	5%	x	-27%	-3%	u	x
CCn1c(COc2ccc(C)cc2)nnc1SCC(=O)Nc1ccc2c(c1)OCCO2	3%	13%	25%	20%	-18%	4%	5%	-9.9%
CC1(C)CC(CC(=O)Nc2ccccc2[N+](=O)[O-])C(=O)O1 (stereo unspecified)	u	8%	x	-2%	-18%	1%	-1%	-2.9%
O=C(CSCc1cc(=O)n2nc(C3CC3)sc2n1)Nc1ccccc1Cl	2%[46.1 µM]	-2%	7%	x	-7%	-4%	5%[46.1 µM]	x
CN1CN=C(NS(=O)(=O)c2ccc([N+](=O)[O-])cc2)NC1	12%[46.1 µM]	3%	-12%	x	-3%	5%	11%[46.1 µM]	x
CC(C)n1cnc2cc(NCc3ccccn3)ccc21	2%	8%	-21%	-5%	35%[activator]	5%	1%	-0.3%
COc1ccc2ncc3c(-c4ccc(C)c(C)c4)nn(CC(=O)NC4CCCCC4)c3c2c1	x	x	x	2%	21%	x	6%[46.1 µM]	-3.5%
O=C(CN1CCN(CC(=O)Nc2ccccc2C(F)(F)F)CC1)Nc1ccccc1F	-13%	-3%	11%	3%	0%	-12%	-4%	1.0%
COc1ccc(CC(=O)Nc2ccc(S(=O)(=O)Nc3cc(C)on3)cc2)cc1OC	0%	1%	20%	1%	-13%	12%	8%	-0.7%
Cc1cc(OCC(=O)Nc2cccnc2)c2c(C)cc(=O)oc2c1	x	0%	-5%	x	-15%	7%	x	x
Cc1ccc(N(CC(=O)N/N=C/c2ccc(OCC(N)=O)cc2)S(C)(=O)=O)cc1Cl	7%[46.1 µM]	1%	8%	x	-9%	2%	-4%	x
Cc1ccccc1NS(=O)(=O)c1ccc2c(c1)n(C)c(=O)n2C	-24%[46.1 µM]	0%	7%	x	0%	-4%	-8%[46.1 µM]	x
Oc1ccc2c3c1O[C@H]1c4[nH]c5c(c4C[C@@]4(O)[C@@H](C2)N(CC2CC2)CC[C@]314)C[C@@]1(O)[C@H]2Cc3ccc(O)c4c3[C@@]1(CCN2CC1CC1)[C@H]5O4	u	x	x	-9%	8%	18%	u	-3.0%
Cc1c(C#N)c(N=CN(C)C)c(C(=O)c2ccc(Br)cc2)n1-c1ccccc1	-5%	-4%	-5%	-1%	x	-13%	-7%	-6.4%
O=C(Nc1ccc(F)cc1)OCCOc1ccc([N+](=O)[O-])cc1	x	0%	7%	x	-15%	3%	x	x
O=C(NCc1csc(-c2cccs2)n1)C1CC1	u	-2%	23%	x	31%[activator]	-3%	-14%	x
Cc1ccccc1NCc1ccc(O)c2ncccc12	u	u	-20%	6%	u	14%	u	-6.4%
O=C(CN1CCN(CC(=O)Nc2ccc(Cl)cc2)CC1)Nc1ccc(F)cc1	6%	-3%	11%	x	0%	-10%	u	x
O=C(COc1ccccc1)c1ccccc1	u	x	-15%	x	54%[activator]	x	0%[46.1 µM]	x
COc1ccc(Cl)cc1S(=O)(=O)Nc1ccc2c(c1)n(C)c(=O)n2C	-37%&-2%[46.1 µM]	3%	1%	14%	21%&4%	-18%	-33%&3%[46.1 µM]	-4.8%
COc1ccc(CCNS(=O)(=O)c2ccc(Br)cc2)cc1OC	x	0%	9%	x	9%	7%	x	x
CC(C)CC(COCc1ccc(Cl)cc1)N1CCN(C(=O)c2ccc(Cl)cc2Cl)CCC1=O (stereo unspecified)	u	-53%	31%	27%	-16%	x	15µM*	-5.9%
CNc1ccc(C=C2C=Cc3ccccc32)cc1	u	x	u	x	0%	x	u	x
CS(=O)(=O)c1ccc2nc(NC(=O)c3ccc(NS(=O)(=O)c4cccc([N+](=O)[O-])c4)cc3)sc2c1	x	-1%	11%	x	18%	4%	x	x
CCn1nc(C)c(CN2CCC(n3nccc3NC(=O)Cc3ccccc3)CC2)c1C	4%	-7%	-12%	x	-20%	13%	13%	x
COCCn1nnnc1C(c1ccccn1)N1CCN(c2cccc(C)c2C)CC1 (stereo unspecified)	-25%	0%	-4%	u	u	-6%	-28%	-0.8%

Rewritten as comma-separated lines: 2 of the compounds above
SMILES,Marburg entry inh,SARS PLpro yeast,RE007 growth inh,Cruzain noTriton,StopGo reporter,NS1 function inh,Lassa entry inh,Cruzain inh Det
CNc1ccc(C=C2C=Cc3ccccc32)cc1,u,x,u,x,0%,x,u,x
COCCn1nnnc1C(c1ccccn1)N1CCN(c2cccc(C)c2C)CC1 (stereo unspecified),-25%,0%,-4%,u,u,-6%,-28%,-0.8%

Compound activity (PubChem BioAssay)

Rows were taken by chance (roughly 4.7% active in at least one column).
